gsp agonist – qHTS for Agonist of gsp, the Etiologic Mutation Responsible for Fibrous Dysplasia/McCune-Albright Syndrome: qHTS. Potency, µM (series often up to 76.9 µM), for the others: at the highest dose activation (cAMP increase), usual class: activators. 340,000 tested, 0.13% active. gsp mutant cells, cAMP HTRF, 30 min; control for the full effect not named in the record. AID 624287, 2012; active = well fitted activation curve with a large enough effect; inconclusive = small, poorly fitted or top-dose-only effect, or another doubt; inactive = no such curve, though single readings can be large or run the other way; cell line not stated here;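 also: phosphodiesterase inhibitor Ro 20-1724 added with compounds to block cAMP breakdown; potency is read from the fitted curve at half-maximal effect; nearly all actives have a fitted effect of over 60% in size; about a fifth of the inactives were tested at one dose only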
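Cells in DMEM/10% FBS with G418 were pretreated with compounds in DMSO plus […] (300 uM stock) for 30 min at 37C. cAMP was measured by HTRF (cAMP-d2 plus anti-cAMP antibody-K) after 30 min at room temperature.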
TRPML1 blocker – qHTS for Inhibitors of the Human Mucolipin Transient Receptor Potential 1 (TRPML1); Mucolipin-1 (Homo sapiens), Q9GZU1; TRPML1-inducible cells, Ca2+ dye fluorescence, FDSS; active compounds read low; inhibition of EC80 agonist-evoked calcium signal; activity change, negative = inhibition, % (test concentration not listed); 390,000 tested, 0.02% active; AID 624415, 2012; in the data active means activity change below about -50%; inconclusive means about -30% to -50%; inactive means above about -30%;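 also: stimulus is agonist 54-4 at its EC80 concentration; % is scaled to controls: 0 for no effect and ±100 for the full control effect; compound concentration not given in the record; the text of the record puts the active cut at -80%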
Target sequence (Q9GZU1 whole entry, looked up): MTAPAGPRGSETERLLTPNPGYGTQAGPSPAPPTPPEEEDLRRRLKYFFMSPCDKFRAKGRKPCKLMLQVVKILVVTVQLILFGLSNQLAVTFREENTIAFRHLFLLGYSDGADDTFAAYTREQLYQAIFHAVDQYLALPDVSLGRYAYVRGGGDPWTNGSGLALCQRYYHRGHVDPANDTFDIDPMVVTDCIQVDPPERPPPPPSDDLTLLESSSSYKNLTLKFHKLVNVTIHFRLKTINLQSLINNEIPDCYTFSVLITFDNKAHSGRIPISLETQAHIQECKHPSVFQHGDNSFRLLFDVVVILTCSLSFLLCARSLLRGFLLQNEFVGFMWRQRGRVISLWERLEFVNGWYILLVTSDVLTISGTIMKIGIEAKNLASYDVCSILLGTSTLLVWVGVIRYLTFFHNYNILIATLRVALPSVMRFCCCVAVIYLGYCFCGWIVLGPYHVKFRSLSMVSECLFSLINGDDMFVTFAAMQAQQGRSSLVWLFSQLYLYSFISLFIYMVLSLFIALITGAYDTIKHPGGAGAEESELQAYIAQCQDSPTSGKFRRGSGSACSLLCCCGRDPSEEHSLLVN
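Tet-induced TRPML1-DL cells loaded with Ca8 no-wash calcium dye were read kinetically on FDSS. Compound addition was followed by EC80 agonist 54-4 (4 uM final); inhibition was read over 110 s.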
gsp antagonist – qHTS for Antagonists of gsp, the Etiologic Mutation Responsible for Fibrous Dysplasia/McCune-Albright Syndrome: qHTS. gsp-mutant cells, cAMP HTRF, 30 min; control for the full effect not named in the record. Potency, µM (titrated, usually from 76.9 µM), without a hit: at the top dose activity change, negative = inhibition, actives largely listed as inhibitors. 340,000 tested, 0.4% active; active = falling curve of any shape with a large fitted effect; inconclusive = falling curve, mostly with a smaller effect; inactive = flat or rising curve; cell line not stated here;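 also: intracellular cAMP measured with PDE inhibitor Ro 20-1724 present during compound exposure; potency is read from the fitted curve at half-maximal effect; % is scaled to controls: 0 for no effect and ±100 for the full control effect; nearly all actives have a fitted effect of over 65% in size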
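G418-selected cells were plated in DMEM/10% FBS for 16-24 h at 37C, then treated with compounds plus the PDE inhibitor […] (300 uM solution added) for 30 min at 37C. Intracellular cAMP was measured by HTRF after 30 min lysis at room temperature.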
Menin MLL FP FL – qHTS Assay for Inhibitors Targeting the Menin-MLL Interaction in MLL Related Leukemias: Competition With Fluorescein Labeled MLL-derived Peptide; Fluorescence polarization, fluorescein-MLL peptide displacement from menin; FP activity change, % at 61.4 µM; 290,000 tested, under 10 active; inconclusive = falling polarisation curve, or a change in total fluorescence; inactive = total fluorescence flat and polarisation flat or rising; no compound was filed as active; the % refers to the polarisation; negative = inhibition;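 also: % of control where 0% means no effect; inhibitors lower the polarisation; unlabelled MLL peptide was the positive control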
ClpP mod – qHTS Assay for Activators of ClpP. ATP-dependent Clp protease proteolytic subunit (Bacillus subtilis (strain 168)), P80244. purified B. subtilis ClpP, FRET peptide cleavage, 20 min. Potency, µM (highest dose often 57.5 µM), inactives show at the top dose activity change, negative = active. 340,000 tested, 1.9% active. AID 651965, 2013; active = well fitted falling curve with a large enough effect; inconclusive = small, poorly fitted or top-dose-only effect; inactive = no such curve, though single readings can be large or run the other way; also: potency is read from the fitted curve at half-maximal effect; the source files actives as falling curves though it sought activators and does not explain the sign; nearly all actives have a fitted effect of over 65% in size; many hits overshoot -100%
Target sequence (P80244 whole entry, looked up): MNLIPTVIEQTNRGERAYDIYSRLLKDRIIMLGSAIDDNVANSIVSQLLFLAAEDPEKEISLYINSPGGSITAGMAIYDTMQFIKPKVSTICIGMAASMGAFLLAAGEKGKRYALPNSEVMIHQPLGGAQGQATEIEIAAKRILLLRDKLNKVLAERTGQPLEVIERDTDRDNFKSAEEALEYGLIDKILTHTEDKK
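FRET quenching reversal measured ClpP activation: 10 microg/mL B. subtilis ClpP at pH 8 with the FRET-FV decapeptide, read at 430 nm after 320 nm excitation. The 20-min minus 0-min signal was scaled between DMSO/no-enzyme wells and ADEP (5.8 microM final).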
TRPML1 agonist – qHTS for Agonists of the Human Mucolipin Transient Receptor Potential 1 (TRPML1) | Mucolipin-1 (Homo sapiens), Q9GZU1 | TRPML1-expressing cells, Ca2+ dye fluorescence, FDSS; host cell line not named in the record; reference of the full effect not given here | activation, % (test concentration not listed) | 410,000 tested, 0.12% active | AID 624414, 2012; in the data active = activation above about 50%; inconclusive = about 30% to 50%; inactive = below about 30%; also: 0% is about no effect; the text of the record puts the active cut at 80%
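Calcium fluorescence on an FDSS kinetic reader gave the read-out. Tet-induced TRPML1-DL cells were plated overnight, dye-loaded (Ca8 with quencher, 45-90 min, room temperature, dark), then read 110 s after compound addition, and again 110 s after 4uM final 54-4 (EC80).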
Active calls of the source: *; ? = inconclusive; nt = no result given; & = joins results of further samples; [ ] = dose if it differs, or a comment.

SMILES,gsp agonist,TRPML1 blocker,gsp antagonist,Menin MLL FP FL,ClpP mod,TRPML1 agonist
O=C(CCC(=O)N1CCOc2ccccc21)NCCCN1CCOCC1,?,-11,8%,2.0,-0.2%,0.5
O=C(O)c1ccccc1Nc1ccc([N+](=O)[O-])cc1C(=O)O,19%[15.4 µM],-11,7%,5.5,nt,0.3
O=C(CSc1nnc(NC(=O)c2ccccc2F)s1)NC1CC1,21%[15.4 µM],-7,-5%,-4.0,nt,0.4
CCCCOC(=O)Nc1ccc(S(=O)(=O)Nc2ncccn2)cc1,-8%[15.4 µM],3,-8%,-5.8,nt,-0.3
COc1ccc(/C=N/n2c(C)nc3sc(C)c(C)c3c2=O)cc1,2%[15.4 µM],7,6%,5.1,nt,0.8
CCc1ccc(Nc2ncc3c(n2)CC(C)(C)CC3=O)cc1,1%[15.4 µM],1,-1%,1.1,nt,2.6
Cc1ccc(-c2cc(C(=O)OCC(=O)Nc3ncc(C(F)(F)F)cc3Cl)c3ccccc3n2)cc1,6%[15.4 µM],26,-4%,-0.4,?,0.2
Cc1ccn2c(=O)nc(SCc3cccc(C(F)(F)F)c3)nc2c1,-3%,25,1%,-0.1,nt,0.9
Cc1c(C(=O)Nc2nc3ccccc3[nH]2)oc2ccc(Br)cc12,-2%[15.4 µM],-8,-9%,4.2,-29%,1.2
N/C(Cc1nc(-c2ccc(Cl)cc2)cs1)=N/O,1%[15.4 µM],-9,4%,4.7,-0.8%,0.5
O=C1C(=C(c2ccccc2)c2ccccc2)Nc2ccccc21,-21%,13,?,12,3.3%,-0.8
CCn1c(SCC(=O)N2c3ccccc3CCc3ccccc32)nc2c1c(=O)n(C)c(=O)n2C,8%,-8,-3%,nt,-2.8%,0.0
CCCCNCC1CCCO1 (centres undefined),1%[15.4 µM],0,10%,0.4,nt,0.1
CN(C(=O)COc1coc(CN2CCN(c3ccccc3)CC2)cc1=O)c1ccccc1,-1%[15.4 µM],14,0%,nt,0.8%,1.9
COc1ccc(C)cc1N(C(=O)CNC(=O)c1ccco1)C(C(=O)NCC1CCCO1)c1ccccc1 (centres undefined),0%,-14,4%,-5.0,nt,-0.2

(continued)
SMILES,gsp agonist,TRPML1 blocker,gsp antagonist,Menin MLL FP FL,ClpP mod,TRPML1 agonist
CC(=O)Nc1ccccc1NC(=O)CC(C)(C)C,-20%,34,8%,-3.1,1.1%,0.7
COCCNS(=O)(=O)c1ccc2c3c(cccc13)C(=O)N2C,-14%[15.4 µM],-1,14%,-2.9,nt,-0.6
NC(=O)C1(NC(=O)[C@@H]2CC3(CC(c4cccc(NC(=O)[C@@H]5CCC(=O)N5)c4)=NO3)CN2C(=O)c2ccccc2)CC1 (some centres undefined),14%,-16,9%,0.4,0.1%,-0.4
Cc1ccc(C)c(Cn2nnc3c(=O)[nH]c(C4CCCN(C(=O)c5ccco5)C4)nc32)c1 (centres undefined),13%[15.4 µM],-9,8%,nt,nt,-0.8
Cc1nnc(NC(=O)CN2C(=O)c3ccccc3S2(=O)=O)s1,11%,-4,-1%,0.5,-0.6%,-0.1
CC(C)C(C)(C#N)NC(=O)CSc1nnc(-c2ccccc2)o1 (centres undefined),-1%,-3,8%,0.1,-0.1%,-0.5
CC(Cc1nnc(N)s1)c1ccccc1 (centres undefined),-22%,-12,0%,4.9,1.3%,0.8
CC(C)c1ccc(NC(=O)N2c3ccccc3Sc3ccccc32)cc1,nt,?,nt,nt,-1.3%,2.9
O=c1c2ccccc2c(-c2ccccc2)nn1-c1cc(Cl)ccc1[N+](=O)[O-],14%,-13,-19%,0.5,-2.9%,0.2
O=C(NC1CCCc2ccccc21)C12CC3CC(CC(O)(C3)C1)C2 (centres undefined),12%,0,2%,2.5,-2.2%,0.9
CCN(CC(=O)Nc1ccc(NC(C)=O)cc1)C(=O)COc1ccccc1Cc1ccccc1,-20%,-4,-5%,nt,-2.7%,0.0
CCCn1cnc2cc(NCc3ccccc3OCC)ccc21,nt,-13,nt,nt,-0.9%,-0.9
COc1ccc(N2C(=O)CC(N(CCc3ccc(S(N)(=O)=O)cc3)C(=S)Nc3ccccc3)C2=O)cc1 (centres undefined),?,nt,-1%,-1.5,0.3%,nt
Cc1noc2ncnc(N3CCCCC3)c12,15%,21,11%,3.8,-1.1%,4.4
CCOc1cc(/C=C(/C#N)c2ccc(Cl)cc2)cc(Cl)c1OCC(=O)O,?,24,?,3.2,-2.6%,0.5

More results:
SMILES,gsp agonist,TRPML1 blocker,gsp antagonist,Menin MLL FP FL,ClpP mod,TRPML1 agonist
CSc1nncc(-c2ccc(F)c(F)c2)n1,18%,0,13%,12,1.9%,-0.2
O=C(O)c1ccccc1-c1ccccc1C(=O)Nc1nccs1,5%,-2,4%,2.4,nt,-0.2
O=S(=O)(c1ccc(NC(=S)NCc2ccco2)cc1)N1CCCC1,14%,0,9%,0.8,-6.4%,0.6
COc1cc2nc(N(CCCN(C)C)C(=O)c3ccc(S(=O)(=O)N4CCc5ccccc5C4)cc3)sc2cc1OC,10%[15.4 µM],23,-15%,nt,4.6%,1.3
c1ccc(-c2noc(-c3cccnc3NCc3ccco3)n2)cc1,nt,-6,nt,nt,4.1%,-0.7
Cc1cc(NC(=O)C2(c3ccccc3)CCCC2)no1,7%,9,8%,1.5,0.1%,-0.3
Cc1nc(SCCC(C)C)c([N+](=O)[O-])[nH]1,-3%,-3,-4%,6.9,1.1%,-1.1
CC1CCN(CCCNC(=O)CN2C(=O)CSc3ccc(S(=O)(=O)N4CCC(C)CC4)cc32)CC1,8%,-4&-4,-6%,nt,1.8%&1.1%,1.0&-0.3
CC1CCN(C(=O)c2[nH]cnc2C(=O)N[C@@H](Cc2ccccc2)C(=O)OC(C)(C)C)CC1,-57%[inhibitor],-13,-6%,-7.2,0.9%,0.2
CCCN1Cc2cc(OC)ccc2-c2ccccc2S1(=O)=O,nt,-6,5%,nt,?,0.1
CN(CCc1ccccn1)Cc1ccc(Cl)cc1Cl,-1%,-8,-2%,1.2,0.3%,3.1
CC(C)CCN(CCC(C)C)C/C(O)=C(\C#N)c1nc(-c2ccccc2)cs1,-20%,2,-11%,10,0.1%,0.5
O=C(N/N=C1\C/C(=N\NC(=O)c2ccncc2)c2ccccc21)c1ccncc1,25µM*,-9,-15%,4.3,0.5%,0.6
O=C(NC(NC(=S)Nc1ccccc1)C(Cl)(Cl)Cl)c1cccc(Cl)c1 (centres undefined),-20%,-13,1%,-0.1,-3.0%,1.7
Cc1nn(CCO)c(N)c1C1(O)C(=O)Nc2c(Cl)cc(Cl)cc21 (centres undefined),?,-2,6%,3.3,nt,-0.8

Further structures:
SMILES,gsp agonist,TRPML1 blocker,gsp antagonist,Menin MLL FP FL,ClpP mod,TRPML1 agonist
O=C(CCn1nc(-c2ccc(Cl)cc2)ccc1=O)NCCc1ccccc1,nt,8,nt,nt,-13%,0.5
COC(=O)CCC(=O)NN1C(=O)c2ccccc2C1=O,-13%,20,8%,-1.5,-0.2%,-0.1
CC(=O)c1ccc(N2CCN(C(=O)C3CCN(S(=O)(=O)c4cccc5nonc45)CC3)CC2)cc1,nt,-29,nt,nt,-9.5%,4.4
O=C1CC(C(=O)N(c2cccc(F)c2)C(C(=O)NC2CCCC2)c2ccccn2)CS1 (centres undefined),-31%,29,14%,-1.8,0.4%,2.6
O=C(NCc1ccccn1)c1cc(-c2ccc(Cl)cc2)nc2ccccc12,27%,4,-6%,1.4,?,0.6
O=C(NC(=S)N1CCN(Cc2ccccc2)CC1)c1cccnc1,1%,1,9%,-0.7,nt,-0.8
N=c1oc2ccccc2cc1-c1nc2ccccc2c(=O)[nH]1,11%,6,-7%,1.8,-6.5%,-0.9
C[C@@H]1CN([C@H](C)CO)C(=O)CCCn2nncc2CO[C@@H]1CN(C)S(=O)(=O)c1ccc(Cl)cc1,-58%,4,nt,nt,-14%,0.7
O=C(NCCN1CCN(c2ccccc2F)CC1)C1COc2ccccc2C1 (centres undefined),nt,20,nt,nt,-2.0%,-0.1
COc1ccccc1NC(=O)c1cc2c(CO)cnc(C)c2oc1=Nc1ccc(OC)c(OC)c1,9%,nt,-19%,-1.5,-1.3%,nt
Cc1cccc(C(=O)Nc2c3c(nn2C(C)(C)C)CS(=O)(=O)C3)c1,6%,-8,6%,-5.0,-0.6%,-0.4
COCCCNC(=S)NNC(=O)c1cc(-c2cccnc2)nc2ccccc12,-40%[inhibitor],6,3%,2.9,2.9%,-0.1
COc1ccc(N2CCN(C(CNC(=O)c3ccco3)c3cccnc3)CC2)cc1 (centres undefined),?,6,-6%,8.0,-1.9%,0.3
O=[N+]([O-])c1cccc(-c2n[nH]c(=S)n2-c2ccccc2)c1,-8%[15.4 µM],0,-7%,0.0,-1.3%,-0.2
CCCCn1c(=O)[nH]c(=O)c2c1nc(-c1ccc3ccccc3c1)n2CC,?,11,-6%,-0.2,nt,-0.8

New compounds follow.
SMILES,gsp agonist,TRPML1 blocker,gsp antagonist,Menin MLL FP FL,ClpP mod,TRPML1 agonist
CCCc1cc(=O)oc2cc(OC(C)C(=O)NCC3CCC(C(=O)O)CC3)ccc12 (centres undefined),nt,nt,8%,-4.1,4.5%,nt
C[C@@H]1CN([C@H](C)CO)S(=O)(=O)c2ccc(C#CC3CCCC3)cc2O[C@H]1CN(C)C(=O)Cc1ccccc1,-16%,19,nt,nt,-2.5%,-0.5
CC(C)(C)OC(=O)N[C@@H](Cc1ccccc1)C(=O)NCC1CCC(C(=O)O)CC1 (some centres undefined),-9%,2,3%,0.3,-0.3%,-0.9
COc1ccccc1CC(=O)Nc1ccc(-c2nnc(-c3ccco3)o2)cc1,-22%,18,?,3.0,?,2.7
CCCCOC(=O)c1ccc(NC(=O)Cc2coc3ccc(C(C)C)cc23)cc1,nt,?,nt,nt,-6.0%,3.9
COc1ccc(OCC(O)Cn2c(N3CCCCC3)nc3c2c(=O)n(C)c(=O)n3C)cc1 (centres undefined),-21%,10,-2%,0.0,nt,0.2
O=C(NCCC1=CCCCC1)C(=O)NCc1ccccc1Cl,-27%,2,9%,3.1,-2.6%,0.5
COc1ccc(NC(=O)C(=O)NCC(c2cccnc2)N2CCc3ccccc3C2)cc1 (centres undefined),nt,-15,nt,nt,-5.6%,0.5

High-throughput results deposited in PubChem by National Center for Advancing Translational Sciences (NCATS).

Hits appear at their usual frequency; overall some 2.1% were active at least once.
